# Bioassay records: PubChem BioAssay, several laboratories
# HNF4A DNA FP: change in binding of human HNF4A to DNA, primary screen, biochemical, fluorescence polarization, FITC-DNA; Hepatocyte nuclear factor 4-alpha (Homo sapiens), P41235; 1 h; activity change, % at 10 µM; hit rate 0.3% among 360,000; AID 1224865, 2016; in the data active = activity change above about 30%, passing the limit was not always enough;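 also: controls were the assay level and a saturating level of protein; the project sought stronger binding though the title names inhibitors; some compounds called inactive have numbers as strong as hits; positive values seem to mean higher polarization but the record does not say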
# Target sequence (P41235 whole entry, looked up): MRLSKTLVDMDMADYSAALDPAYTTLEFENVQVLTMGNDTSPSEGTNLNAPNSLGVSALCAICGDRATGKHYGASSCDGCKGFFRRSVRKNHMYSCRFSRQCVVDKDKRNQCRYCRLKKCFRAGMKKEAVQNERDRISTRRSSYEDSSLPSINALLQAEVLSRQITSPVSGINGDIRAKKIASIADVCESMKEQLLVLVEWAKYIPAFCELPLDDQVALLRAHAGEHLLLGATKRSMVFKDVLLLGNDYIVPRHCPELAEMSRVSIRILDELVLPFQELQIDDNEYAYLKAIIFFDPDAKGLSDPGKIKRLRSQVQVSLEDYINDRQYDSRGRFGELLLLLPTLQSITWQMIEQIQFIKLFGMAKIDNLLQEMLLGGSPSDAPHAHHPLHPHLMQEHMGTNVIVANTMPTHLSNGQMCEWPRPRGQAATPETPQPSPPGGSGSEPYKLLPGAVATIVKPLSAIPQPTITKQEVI
# B2AR ag: beta2AR agonists driving receptor internalization, primary screen, cell-based, FAP fluorogen, flow cytometry. Am2.2-beta2AR cells; reference of the scale not given here. response, % (concentration not given with the values). hit rate 0.43% among 340,000. AID 504454, 2011;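 active = response above a set limit, near 3 SD of response in nonfluorescent compounds, cut at about 42% in these data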;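 also: stock transfer was 100 nL into about 11 µL; a reference agonist was the positive control; negative values mostly stem from fluorescent compounds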
# Target sequence (P07550 whole entry, looked up): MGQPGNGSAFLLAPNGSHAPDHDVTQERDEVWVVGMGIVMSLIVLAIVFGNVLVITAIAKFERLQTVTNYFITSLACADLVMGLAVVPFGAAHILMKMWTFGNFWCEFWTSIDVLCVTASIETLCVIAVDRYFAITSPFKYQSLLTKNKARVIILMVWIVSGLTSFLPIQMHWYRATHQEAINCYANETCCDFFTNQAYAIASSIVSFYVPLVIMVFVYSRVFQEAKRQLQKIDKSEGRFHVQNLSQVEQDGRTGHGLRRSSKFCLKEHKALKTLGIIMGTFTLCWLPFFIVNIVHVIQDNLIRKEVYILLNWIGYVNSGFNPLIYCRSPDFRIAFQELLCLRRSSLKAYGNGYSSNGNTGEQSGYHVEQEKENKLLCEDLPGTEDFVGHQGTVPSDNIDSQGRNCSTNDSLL
# rRNA inh HTS: reduced GFP signal of wild-type E. coli, primary screen, bacterial rRNA inhibitor project, GFP/RFP fluorescence, OD600, single point; E. coli WT GFP vs humanized-ribosome RFP mutants, 24 h; stronger effect = lower value; DMSO median 0, no signal -100; GFP signal change (wild-type ribosome), % (concentration not given with the values); hit rate 1.6% among 350,000;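 active = significant combined selectivity score with lowered wild-type GFP, culture density cut under 30%, mutant RFP and density less affected; inactive = any of these conditions unmet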; also: one replicate is shown; some compounds called inactive have numbers as strong as hits
# Ecoli growth: E. coli growth inhibition, primary screen, OD600; Escherichia coli growth, 23 h; stronger effect = lower value; OD600 absorbance (test concentration not listed); hit rate 0.21% among 330,000; AID 1053175, 2014;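 active = OD600 absorbance below the run mean of sample wells minus 3.6 SD, in any replicate, cut at about 0.56 in these data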;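 also: stock transfer was 300 nL into about 60 µL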
# ALR H2O2 inh: inhibitors of human ALR sulfhydryl oxidase, primary screen, biochemical, H2O2 detection, HRP-luminol luminescence, single point; hit rate 3.8% among 290,000; FAD-linked sulfhydryl oxidase ALR (Homo sapiens), P55789; inhibition, % (concentration not given with the values); purified ALR, DTT oxidation;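 active = mean and each replicate at 75% or more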;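 also: stock transfer was 7.5 nL into about 7.5 µL; 0% = neutral wells and 100% = wells with inactivated enzyme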
# Target sequence (P55789 whole entry, looked up): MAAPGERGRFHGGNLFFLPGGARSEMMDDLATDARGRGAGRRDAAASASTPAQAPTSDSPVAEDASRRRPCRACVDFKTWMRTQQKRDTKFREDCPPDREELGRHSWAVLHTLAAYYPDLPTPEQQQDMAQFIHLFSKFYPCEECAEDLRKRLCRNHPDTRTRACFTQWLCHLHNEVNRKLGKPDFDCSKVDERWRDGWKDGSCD
# UCH37 inh: inhibitors of human UCH37 deubiquitinase, primary screen, biochemical, Ub-AMC cleavage, fluorescence; purified proteasome/UCH37; Ubiquitin carboxyl-terminal hydrolase isozyme L5 (Homo sapiens), Q9Y5K5; inhibition, % (concentration not given with the values); hit rate 0.33% among 330,000;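 active = mean of two replicates above 20%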;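 also: 0% = compound-free wells with enzyme and 100% = wells lacking proteasome; stock transfer was 100 nL into about 20 µL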
#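 Signal – fluorescence, ex 355 nm, em 460 nm · System – Proteasome-bound UCH37 · Input – 0.15 nM proteasome as dispensed · Timing – 30 min preincubation with enzyme, 25 min cleavage at room temperature · Read-out basis – percent inhibition of cleavage signal versus uninhibited and no-proteasome wells · Medium – Tris-HCl pH 7.4 with ATP-MgCl2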
# FGF22 binding: binders of human FGF22 protein, primary screen, FGF22 synaptogenesis inhibitor project, biophysical, thermal shift, single point | Fibroblast growth factor 22 (Homo sapiens), Q9HCT0 | recombinant FGF22 thermal shift, SYPRO orange fluorescence; percent of sucrose octasulfate shift, DMSO zero | calls only at 9.99 µM | hit rate 1.5% among 340,000 | AID 651658, 2012;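 active = melting point raised past a set limit in the mean and every replicate; three in four hits are not shown here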
# rRNA inh HTS OD600: second read-out of rRNA inh HTS, no call of its own (marks repeat the call); OD600 change, %; measured here: OD600 growth;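 optical density of the mix in the first replicate; 0 = DMSO median and -100 = no signal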
# rRNA inh HTS RFP: recorded beside rRNA inh HTS, whose call it bears; RFP signal change, %; measured here: RFP humanized mutant strains;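 first replicate; 0 = DMSO median and -100 = no signal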
# * marks the source's active call; other numbers are inactive results; i = inactive; nt = not tested or not shown; & = joins results of further samples. This is a subset; the hit share may differ from the screen's.
SMILES,HNF4A DNA FP,B2AR ag,rRNA inh HTS,rRNA inh HTS OD600,rRNA inh HTS RFP,Ecoli growth,ALR H2O2 inh,UCH37 inh,FGF22 binding
COc1ccc([C@@H]2[C@@H]3C(=O)N(C(C)(C)C)C(=O)[C@@H]3[C@]3(C)C(=O)N(c4cccc(Br)c4)C(=O)N23)cc1,-3.4,-3,nt,nt,nt,nt,-3,1.3,nt
O=C(Nc1ccccc1C(F)(F)F)N1CCN(c2ccc3nnc(-c4ccc(F)cc4)n3n2)CC1,0.2,-6,nt,nt,nt,0.72,nt,5.4,nt
CCOc1ccccc1C(=O)NCC(=O)OCC(=O)N1C(C)CCCC1C (stereo not drawn),-0.2,7,nt,nt,nt,0.72,-7,5.7,nt
Cc1nnc(SCc2c(Cl)cccc2[N+](=O)[O-])s1,0.8,-13,-1,2,-1.6,0.64,nt,0.8,i
COc1ccc(NC(=O)CSC2CC(=O)N(c3ccc4c(c3)OCCO4)C2=O)cc1 (stereo not drawn),-1.9,-1,nt,nt,nt,0.69,99*,4.9,nt
O=C(NCc1cccc(Cl)c1)C1CCC(=O)N(CC2CCCCC2)C1 (stereo not drawn),0.5,10,-11,-6,0.7,0.67,-1,5.1,i
Cn1nnnc1SC1CC(=O)N(c2ccccc2)C1=O (stereo not drawn),2.0,3,13,6,1.0,0.7,nt,0.9,i
CCc1cccc(C)c1NC(=S)N(Cc1cccnc1)Cc1ccco1,1.0,-5,nt,nt,nt,0.69,-24,1.9,nt
CN(CCO)c1cccc2c1S(=O)(=O)N[C@H](Cc1ccccc1)CO2,3.3,nt,-4,4,-0.3,nt,nt,nt,i
CC(C)C[C@@H](CN1CCC[C@@H]1CN1C(=O)C(=O)NC[C@@H]1Cc1ccc(O)cc1)N1C[C@H](Cc2ccc(O)cc2)N(CC2CCCCCC2)C(=O)C1=O,1.4,nt,-16,-13,10,nt,nt,nt,i
CSc1ncnc2c1ncn2CCCNC1CCN(Cc2ccccc2)CC1,1.2,nt,9,12,-1.2,nt,nt,nt,i
O=C(COC(=O)c1n[nH]c2ccccc12)Nc1ccccc1F,-3.5,4,-4,-14,-2.4,0.64,1,-0.3,i
CCC(C)NC(=O)C1(C)CCC(=O)N1Cc1ccccc1OC (stereo not drawn),0.9,-1,nt,nt,nt,0.72,-13,1.0,nt
O=c1cc(CN2CCN(Cc3ccccc3)CC2)c2cc(O)ccc2o1,2.6,-6,1,8,-2.9,0.67,18,0.6,i
Cc1ccc(SCC(=O)NC2CC2)cc1,-1.9,-10,2,-5,0.1,0.74,0,2.6,i
O=C(NCc1ccc2c(c1)OCO2)c1c(F)c(F)c(F)c(F)c1F,2.8,-7,nt,nt,nt,0.68,-3,0.5,nt
Cc1ccc(NC(=S)NNC(=S)Nc2ccc(C)cc2)cc1,1.8,4,nt,nt,nt,0.69,nt,3.5,i
COCCN(C(=O)COC(=O)Cc1coc2cc(C)ccc12)c1c(N)n(Cc2ccccc2)c(=O)[nH]c1=O,-9.9,-3,11,5,1.2,0.66,0,2.3,i
CCN(CC)C(=O)C[n+]1cccc(C(N)=O)c1,4.3,4,nt,nt,nt,0.69,-1,-0.2,nt
COc1cc(C(CC(=O)N2CCOCC2)c2c(OC)cc(OC)c3ccc(=O)oc23)cc(OC)c1OC (stereo not drawn),2.5,-1,3,11,-1.6,0.66,11,2.2,i
COc1ccc(CN(C(=O)c2oc3cc(C)ccc3c2C)C2CCS(=O)(=O)C2)cc1OC (stereo not drawn),0.4,-9,7,-18,4.6,0.69,-14,4.4,i
O=C(Nc1ccc(NC(=O)c2cccnc2Cl)cc1)c1cccc(Cl)c1,2.3,9,3,14,0.0,0.71,1,-30,i
O=C(Nc1cccnc1Cl)c1cc(-c2ccc(F)cc2)on1,-1.4,30,4,15,-0.3,0.73,1,0.4,i
Cc1c2c(nc3ccccc13)CCC(C(C)(C)C)C2 (stereo not drawn),1.3,-13,-37,-45,-11,0.57,1,0.3,i
COCCNC(=O)C1(C)CCN(C(=O)c2ccc3ccccc3n2)C1 (stereo not drawn),-0.1,nt,10,16,1.3,nt,nt,nt,i
Cc1ccc(C(=O)OCC(=O)NC(=O)c2ccccc2)o1,-2.2,1,6,7,-2.1,0.6,-1,-3.0,i
CC1CN(C(=O)COC(=O)c2ccc(NC(=O)CC#N)cc2)CC(C)O1 (stereo not drawn),0.2,-3,13,-2,2.4,0.64,99*,-3.3,i
CCOc1cc(C)c(S(=O)(=O)Nc2ccc3cn[nH]c3c2)cc1C,-1.7,-18,nt,nt,nt,0.67,-13,3.4,nt
C/C(=N\NC(=O)C1CCCC1)c1ccc(C(C)C)cc1,4.2,5,5,4,-1.2,nt,-6,nt,i
Cc1nn(-c2ccccc2[N+](=O)[O-])c(=O)c2ccccc12,-4.3,-3,9,7,-1.8,0.71,-9,1.7,i
COC(=O)c1ccc(NC(=O)CSc2ccccn2)cc1,4.3,3,nt,nt,nt,0.7,-9,1.9,nt
COc1cccc(OC(=O)N2CCOCC2)c1,-3.6,-5,24,15,2.9,0.67,6,2.7,i
CC(=O)c1cc(C(=O)c2ccccc2)sc1Nc1ccccc1,2.1,-6,nt,nt,nt,0.65,-4,-15,nt
COc1ccccc1C(=O)Nc1ccc(C)cc1C(=O)c1ccccc1,0.3,26,nt,nt,nt,0.65,10,1.6,i
COc1ccc(S(=O)(=O)Nc2cccc(/C=C/C(=O)O)c2)cc1,-2.4,7,nt,nt,nt,0.68,-2,3.8,nt
COc1cccc(OCC(O)CN2C(C)CCCC2C)c1 (stereo not drawn),-3.3,8,nt,nt,nt,0.74,-2,2.9,nt
C/C(=N\Nc1ccc(C)c(Cl)c1)c1cccnc1,0.2,-3,-11,-6,8.0,nt,99*,nt,i
CC1=C(C(=O)N2CCCCCC2)CC(CC(=O)NCc2cccs2)C(=O)N1Cc1ccccc1 (stereo not drawn),-2.7,nt,0,4,-1.1,nt,nt,nt,i
Fc1ccc(CNC(=S)Nc2cccc(C(F)(F)F)c2)cc1,-0.5,10,nt,nt,nt,0.59,-19,3.2,nt
COCCn1c(SCC(=O)Nc2cccc(F)c2)nc2c([nH]c3ccccc32)c1=O,4.5,-2,11,5,1.9,0.72,-2,-3.3,i
CC(C)[C@@H](N)C(=O)N/N=C/c1ccc2ncccc2c1,4.5,-8,2,-2,-2.4,nt,-2,nt,i
CCOC(=O)N1Cc2cc3ccccc3nc2C1,0.1,nt,-7,0,3.3,nt,nt,nt,i
CCN1C(=O)CSC1=Nc1ccc(C(=O)OC)cc1,-3.5,nt,5,0,0.3,nt,nt,nt,i
COc1ccc(CNC(=S)NCc2ccc(F)cc2)cc1OC,-2.4,-10,-16,-13,-2.5,0.7,0,5.9,i
CC(C)Oc1ccccc1C1(c2ccccc2)NC(=O)NC1=O (stereo not drawn),0.0,0,5,3,-0.9,0.65,-7,4.7,i
CCOC(=O)N1CCC(N2CCN(S(=O)(=O)CC)CC2)CC1,3.6,-8,nt,nt,nt,0.69,-6,-1.1,nt
Cc1ccc(CNc2cnccn2)cc1,1.4,-2,nt,nt,nt,0.68,-16,-257,nt
CCC(c1nnnn1Cc1ccco1)N(CCc1ccccc1)Cc1cc2ccc(OC)cc2[nH]c1=O (stereo not drawn),3.1,-3,nt,nt,nt,0.75,nt,-2.7,nt
COc1ccc(CNC(=O)COC(=O)c2ccc(F)c(S(=O)(=O)N3CCCCC3)c2)cc1OC,-0.4,1,-10,-13,-0.2,0.74,nt,-0.7,i
C[C@H]1CCC[C@@]2(O[C@H](CCO)C[C@@H](O)[C@@H]2O)O1,-3.2,3,2,5,1.1,nt,-2,2.4,i
C[C@@H]1CN([C@@H](C)CO)C(=O)CCCn2nncc2CO[C@H]1CN(C)S(=O)(=O)c1cccc(F)c1,-2.3,nt,1&2,-2&5,-1.3&-0.9,nt,nt,nt,i
C=CCc1cccc(/C=N/NC(=O)COc2ccc(-n3cnnn3)cc2)c1O,-1.1,5,13,12,0.5,nt,-12,nt,i
CCNC(=O)CSc1nnc(-c2ccc(OC)cc2)n1CC(C)C,1.1,-8,nt,nt,nt,0.7,-6,4.4,nt
Nc1cccc(C(=O)Nc2ccco2)c1,1.8,-4,nt,nt,nt,0.67,98*,0.9,nt
COc1ccc(-c2cnc(SCC(=O)Nc3nc(C(C)(C)C)cs3)n2Cc2ccco2)cc1,8.6,-2,nt,nt,nt,0.72,21,-1.3,nt
CCOc1ccc(-c2nnc(N3CCCCC3)c3ccccc23)cc1,1.2,-10,nt,nt,nt,0.72,-1,1.9,nt
O=C(O)c1ccccc1CSc1nc2ccccc2s1,1.5,-1,-12,-8,5.7,0.64,99*,5.1,i
COc1ccc(C(CNC(=O)c2cc(S(=O)(=O)NCc3ccco3)ccc2C)N(C)C)cc1 (stereo not drawn),5.0,2,8,4,1.4,0.71,0,3.9,i
CNc1ccc([N+](=O)[O-])cc1-c1nc2ccccc2[nH]c1=O,-5.4,61*,30,10,0.0,0.68,-5,1.8,i
O=C(CCc1nc2ccccc2[nH]c1=O)OCC(=O)c1ccc(Cl)cc1,0.5,0,18,3,20,0.68,nt,-2.2,i
# Later entries
SMILES,HNF4A DNA FP,B2AR ag,rRNA inh HTS,rRNA inh HTS OD600,rRNA inh HTS RFP,Ecoli growth,ALR H2O2 inh,UCH37 inh,FGF22 binding
O=C(CCn1c(SCC(=O)NCc2ccco2)nc2ccccc2c1=O)NCCc1ccccc1,-2.4,3,nt,nt,nt,nt,-3,nt,nt
CCc1ccc(NC(=O)c2ccc(S(=O)(=O)NCc3cccnc3)cc2)cc1,-4.3,19,2,1,-0.1,0.61,-5,0.2,i
C/C(=N\NC(=O)c1c(C)nc2ccccn12)c1ccccc1F,1.6,-4,3,14,0.8,nt,nt,nt,i
O=C(NCc1ccccc1F)c1ccc(S(=O)(=O)Nc2cccc(C(F)(F)F)c2)cc1,2.0,8,nt,nt,nt,0.65,5,5.1,nt
Cc1ccc(CN2CC(C(=O)Nc3ccc(F)c([N+](=O)[O-])c3)CC2=O)cc1 (stereo not drawn),-3.1,19,20,14,3.1,0.7,-9,1.8,nt
Cc1cc(N/C=C\c2nnnn2-c2ccc(F)cc2)no1,-3.7,12,nt,nt,nt,0.68,-4,4.5,nt
COc1ccccc1CNC(=O)COC(=O)c1cccc(S(=O)(=O)N2CCCC2)c1,0.8,5,8,2,-1.6,0.7,0,3.1,i
Cc1cc(Nc2ccccc2)nn1C(=O)c1ccccc1,1.2,0,nt,nt,nt,0.7,54,-2.9,nt
C=CCOc1ccccc1CN1CCSCC1,-0.1,-5,nt,nt,nt,0.7,-7,5.8,nt
Cc1ccc(NS(=O)(=O)c2cccc(C(=O)NCC(c3ccc(F)cc3)N3CCOCC3)c2)cc1 (stereo not drawn),2.4,-2,-18,-27,-3.6,0.7,nt,1.9,nt

# Among those listed so far, these contain a thiophene ring, fused or not:
SMILES,HNF4A DNA FP,B2AR ag,rRNA inh HTS,rRNA inh HTS OD600,rRNA inh HTS RFP,Ecoli growth,ALR H2O2 inh,UCH37 inh,FGF22 binding
CC(=O)c1cc(C(=O)c2ccccc2)sc1Nc1ccccc1,2.1,-6,nt,nt,nt,0.65,-4,-15,nt
CC1=C(C(=O)N2CCCCCC2)CC(CC(=O)NCc2cccs2)C(=O)N1Cc1ccccc1 (stereo not drawn),-2.7,nt,0,4,-1.1,nt,nt,nt,i
